# Screening results (PubChem)
# GALR2 ag – GALR2 (human) receptor agonism; 140,000 compounds, 0.48% hits; GALR2-expressing cells, agonist activation read-out; AID 803; activation, %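 (tested at 5 µM)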;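 active = above mean plus 3 SD of all compounds, about 5% in these data, not always enough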;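 note: 0% = vehicle buffer wells and 100% = reference agonist at full effect; tested in CHO reporter cells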
# Target sequence (O43603 whole entry, looked up): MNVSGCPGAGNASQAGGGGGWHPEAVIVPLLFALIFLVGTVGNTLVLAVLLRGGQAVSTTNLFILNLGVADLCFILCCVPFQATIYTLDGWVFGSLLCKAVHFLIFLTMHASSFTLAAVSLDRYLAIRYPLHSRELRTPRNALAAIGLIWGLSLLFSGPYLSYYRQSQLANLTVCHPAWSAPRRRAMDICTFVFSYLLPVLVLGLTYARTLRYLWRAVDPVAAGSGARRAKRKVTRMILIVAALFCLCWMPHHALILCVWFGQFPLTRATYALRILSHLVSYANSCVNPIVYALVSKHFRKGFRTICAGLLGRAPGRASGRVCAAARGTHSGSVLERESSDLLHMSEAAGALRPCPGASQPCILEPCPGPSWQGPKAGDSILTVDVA
# Insulin prom inh – TRM-6 insulin promoter activity inhibition. TRM-6 cells (human fetal islet line), insulin promoter-eGFP reporter, imaging; reporter expression induced with tamoxifen. inhibition, % at 2 µM. 130,000 compounds, 0.9% hits;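 active = inhibition above the mean plus 3 SD, with well images judged a real hit on visual review, cut at about 60% in these data, passing the limit was not always enough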
# RGS16-Gao – modulates binding between human RGS16 and Galphao. O15492+P09471. bead-based flow cytometry RGS16-Galphao binding, fluorescence; actives lie on both sides. binding response (% of control), % at 10 µM. 220,000 compounds, 0.38% hits. AID 1441;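 active = below 25% or above 175%, edge rows of some plates excepted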;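 note: Galphao activated by GDP with aluminum fluoride before binding; 100% = wells without compound and 0% = beads without RGS; some results beyond the cut were filed as inactive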
# Target sequence (O15492 whole entry, looked up): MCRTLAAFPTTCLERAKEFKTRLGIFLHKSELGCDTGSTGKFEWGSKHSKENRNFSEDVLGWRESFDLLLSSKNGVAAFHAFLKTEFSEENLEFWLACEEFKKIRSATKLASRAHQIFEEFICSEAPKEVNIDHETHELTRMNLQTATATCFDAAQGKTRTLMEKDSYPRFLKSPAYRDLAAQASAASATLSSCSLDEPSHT
# Target sequence (P09471 whole entry, looked up): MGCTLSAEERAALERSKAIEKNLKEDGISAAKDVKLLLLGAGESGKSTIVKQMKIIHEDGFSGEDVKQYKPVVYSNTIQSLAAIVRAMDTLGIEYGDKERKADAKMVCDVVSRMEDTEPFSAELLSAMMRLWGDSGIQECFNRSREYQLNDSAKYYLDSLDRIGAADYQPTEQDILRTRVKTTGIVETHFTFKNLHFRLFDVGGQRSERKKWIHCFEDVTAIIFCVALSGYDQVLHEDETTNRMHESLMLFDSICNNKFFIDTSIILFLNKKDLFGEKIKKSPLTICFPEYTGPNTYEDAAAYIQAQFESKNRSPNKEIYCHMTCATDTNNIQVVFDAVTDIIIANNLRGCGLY
# HSV replic up – HSV replication enhancement. HSV replication augmentation in cells, fold increase. maximum fold increase. 220,000 compounds, 0.005% hits;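 active = peak rise of 1.5-fold or more in the series; tested in PC3 cells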;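 note: first round at 10 µM; read as green reporter fluorescence; hits show the peak of a series up to 25 µM; 1 = signal of infected wells without compound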
# PKD1 inh – PKD1 (human) kinase inhibition; Q15139; 200,000 compounds, 0.056% hits; inhibition, %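 (about 10 µM by stock and volumes)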; PKD1 kinase fluorescence polarization assay;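 active = inhibition of 50% or more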;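 note: controls were vehicle for no effect and a reference inhibitor for full effect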
# Insulin prom inh cell count – also measured in Insulin prom inh; calls as there; normalized cell count, %; measured here: cell count, toxicity; reference of the scale not given here;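 cells exposed to compound for 48 h; stained nuclei by imaging scaled within each plate; lower means fewer cells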
# HSV replic up primary fold – further read-out of HSV replic up, marked with its call; fold increase; compound at 10 µM; measured here: primary screen fold increase 10 uM; tested in PC3 cells;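 GFP signal in the first replicate; 1 = infected wells without compound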
# * hit, by the source's call; i = inactive; / = no result given.
SMILES,GALR2 ag,Insulin prom inh,Insulin prom inh cell count,RGS16-Gao,HSV replic up,HSV replic up primary fold,PKD1 inh
CCOc1cc2nc3c4ccccc4n(C)c3nc2cc1OCC,1.2,-36,119,106,i,0.85,-9
N=C(N)SCc1cn(-c2ccccc2)nc1-c1ccc(Br)cc1,/,/,/,102,i,0.67,-4
CCN1CCN(CCNC(=O)c2cn(Cc3ccccc3F)nn2)CC1,0.8,-343,44,101,i,0.81,-6
CCNC(=S)Nc1ccc(Oc2ccccc2)cc1,-2.5,-74,110,/,i,0.7,-4
O=S(=O)(Nc1ccc(O)c(CN2CCCCC2)c1)c1ccccc1,-1.7,21,99,95,i,0.72,-4
CCc1ccc(NC(=O)CSc2nc3n[nH]c(C)c3c(=N)n2-c2cccc(OC)c2)cc1,-1.2,23,187,96,i,0.78,3
COc1ccc(-c2nn(-c3ccccc3C)cc2CNCc2cccnc2)cc1F,/,/,/,59,i,0.97,-4
O=C1C=CC(=O)N1c1ccc(N2CCCCC2)cc1,/,-253,1,90,i,0.84,-2
CNc1nc(SC)n(C)c(=O)c1N=O,/,/,/,98,i,1,/
CCn1c(SCc2ccccc2)nnc1C1CCCCC1,1.3,/,/,103,i,0.95,-10
O=C1NCCN1C(=O)N(c1ccccc1)c1ccccc1,-1.4,-3,72,102,i,0.96,-1
COc1ccccc1NC(=O)CSc1nnc(-c2ccco2)o1,-1.8,21,97,102,i,1,-5
Cn1c(=O)c2cc(S(=O)(=O)NC(C(=O)Nc3cccc(F)c3)c3ccccc3)ccc2n(C)c1=O (stereo unspecified),-2.0,/,/,98,/,/,2
CCCOc1ccc(NC(=O)C2CC(=O)N(C(C)C)C2)cc1 (stereo unspecified),-0.1,/,/,101,i,0.95,-8
O=C(O)C(Cc1cn[nH]n1)=NO,/,/,/,97,i,0.85,/
CCOc1ccc(N(CC(=O)NCc2ccccc2)S(C)(=O)=O)cc1,-0.8,-79,94,94,i,1,7
O=C(COC(=O)C1CCN(S(=O)(=O)c2ccc3c(c2)OCCO3)CC1)Nc1ccc(C(F)(F)F)cc1,-1.1,-27,105,100,i,1.1,-8
COc1ccc(NC(=S)N/N=C/c2ccc(F)c(F)c2)cc1,/,/,/,102,i,0.97,/
O=C(CN1CCN(c2ccc([N+](=O)[O-])cc2)CC1)Nc1nccs1,-0.5,77*,101*,111,/,/,2
CN(C)CC1CCCCC1OC(=O)/C=C/c1ccccc1 (stereo unspecified),/,/,/,102,i,1,/
CCN(CC)C(=O)N(CC)Cc1ccccc1,/,-63,117,103,i,1,-5
COc1ccccc1NC(=O)COc1ccc(/C=N/n2cnnc2)cc1OC,-2.4,/,/,100,i,0.91,-8
CNCCCNC(=O)c1ccc(/C=N/O)nc1,/,16,104,102,i,0.97,9
CCn1cc(C(=O)NCCc2ccccc2)c(=O)c2cc(F)c(N3CCN(C)CC3)cc21,-0.9,8,70,145,i,0.9,-7
Cc1ccc([N+](=O)[O-])cc1NC1CC(O)C(CO)O1 (stereo unspecified),0.6,-7,149,106,i,1,-9
C/C=C/C(=O)N1CC2(CC(c3cccc(NC(=O)COc4ccc(Cl)cc4)c3)=NO2)C[C@@H]1C(N)=O (stereo partly specified),/,/,/,114,i,0.78,/
CCOC(=O)C1=NN(c2ccc(Cl)cc2)C(=O)C1,/,/,/,91,i,1,/
O=c1cc(C(F)(F)F)nc(-c2ccccc2OC(F)(F)F)[nH]1,/,/,/,100,i,1,/
COc1ccccc1Nc1cc(C(=O)NCCCN2CCOCC2)c2ccccc2n1,-1.4,/,/,103,i,0.84,18
Cc1cc2nc(SCCOC(=O)Nc3ccc(Cl)cc3)nc(C)c2cc1C,-1.3,-57,87,97,i,1,9
COc1cc(C2/C(=C(\O)c3ccc4c(c3)CC(C)O4)C(=O)C(=O)N2CCCn2ccnc2)ccc1O (stereo unspecified),0.7,/,/,139,i,0.83,11
C=CCn1c(SCc2ccc(C(=O)O)cc2)nc2sc(C)c(C)c2c1=O,/,/,/,104,i,0.95,/
Nc1ccc2nc(-c3ccccc3)sc2c1,1.2,3,117,105,i,0.89,-2
COc1ccccc1C(c1nnnn1Cc1ccccc1)N1CCN(C2CCCC2)CC1 (stereo unspecified),-2.1,-27,95,102,i,1,-4
Cc1cc(Oc2ccc(C)c(Cl)c2)nc(SCC(=O)c2ccccc2)n1,-0.6,-4,158,104,i,1,8
Cc1cc(=O)oc2cc(NC(=S)NCc3ccccn3)ccc12,/,-11,118,99,i,1.1,-1
CCCc1ccc(C#N)c(SC2CC(=O)N(c3ccc(OC)cc3)C2=O)n1 (stereo unspecified),/,/,/,98,i,1,2
Cc1cc(N=Cc2c(O)ccc3ccccc23)no1,-1.3,-23,96,104,i,0.82,-6
O=C(NCCCN1CCOCC1)C(=O)NCc1ccccc1,/,/,/,149,i,1,-7
O=C(CSc1nnnn1C1CCCCC1)NCc1cccc(C(=O)O)c1,-0.7,3,165,104,i,0.97,-10
COc1cc(C(=O)NCCN2C(=O)S/C(=C\c3cccs3)C2=O)cc(OC)c1OC,/,-53,144,97,i,0.97,-6
CCOC(=O)c1c(C)oc2cc(Br)c(OC(=O)N3CCOCC3)cc12,0.1,-79,85,101,i,0.89,-2
CCC(C)NC(=O)C(Cc1ccccc1)NS(=O)(=O)c1cccc2nsnc12 (stereo unspecified),-3.8,14,71,94,i,0.94,-1
CCOCCc1nnc(N)s1,-3.5,3,110,107,i,0.81,-1
c1ccc(CNn2c(N3CCOCC3)nc3ccccc32)cc1,-0.6,21,71,94,i,0.98,-13
O=C(CSc1nnc(-c2ccco2)n1Cc1ccco1)NCc1ccccc1,-2.0,-49,111,102,i,0.93,-2
COC(C[C@H]1O[C@H]1[C@H](O)COCc1ccccc1)OC,/,/,/,102,i,0.85,/
CC(C)(C)n1nnnc1C(c1ccncc1)N1CCN(C2CCCCC2)CC1 (stereo unspecified),-2.2,/,/,159,i,1,-11
COc1ccc(NC(=O)Nc2ccccc2C(=O)N2CCCC2)cc1,-1.6,-43,165,100,i,0.89,3
CCOc1ccc(-n2cccc2C=O)cc1,-1.1,/,/,105,i,1.2,1
COc1ccc(S(=O)(=O)N2CCC(C(=O)NCC3CCCO3)CC2)cc1C (stereo unspecified),0.5,-11,212,98,i,0.96,-5
Cc1ccc(-n2c(Cc3ccccc3)nnc2SCC(=O)NNC(=O)Cc2ccccc2)cc1,-3.4,-70,113,103,i,1.2,-2
NC(=O)CN1CCN(c2cccc(Cl)c2)CC1,/,-5,88,106,i,0.89,-2
CCOC(=O)N1N=C(c2ccc(C)cc2)CC1(O)C(F)(F)F (stereo unspecified),-1.5,/,/,107,i,0.79,-4
CC(C)Cc1csc(NC(=O)c2ccc(F)cc2)c1C(=O)O,-0.8,/,/,103,i,0.94,-7
COC(=O)c1ccc(CN(c2ccccn2)S(=O)(=O)c2ccccc2)cc1,-1.7,-22,66,109,i,1,-6
CCN(CC)CC(C)CNC(=O)CN1C(=O)CSc2ccc(S(=O)(=O)N3CCOCC3)cc21 (stereo unspecified),-1.3,43,104,107,i,1,2
Cc1cccc(S(=O)(=O)c2c(N)n(/N=C/c3ccccc3)c3nc4ccccc4nc23)c1,-2.0,8,81,100,i,0.77,-15
CCn1ncc(-c2csc(N)n2)c1C,/,/,/,108,i,0.98,-5
CCC(C)NC(=O)CNC(=S)N(Cc1ccccc1F)C1CCCCC1 (stereo unspecified),/,/,/,104,i,0.96,-1

# 5 compounds already listed, ordered by length of the SMILES, largest number first.
SMILES,GALR2 ag,Insulin prom inh,Insulin prom inh cell count,RGS16-Gao,HSV replic up,HSV replic up primary fold,PKD1 inh
Cc1cccc(S(=O)(=O)c2c(N)n(/N=C/c3ccccc3)c3nc4ccccc4nc23)c1,-2.0,8,81,100,i,0.77,-15
COC(=O)c1ccc(CN(c2ccccn2)S(=O)(=O)c2ccccc2)cc1,-1.7,-22,66,109,i,1,-6
COC(C[C@H]1O[C@H]1[C@H](O)COCc1ccccc1)OC,/,/,/,102,i,0.85,/
CC(C)Cc1csc(NC(=O)c2ccc(F)cc2)c1C(=O)O,-0.8,/,/,103,i,0.94,-7
CCOc1ccc(-n2cccc2C=O)cc1,-1.1,/,/,105,i,1.2,1

# Next part:
SMILES,GALR2 ag,Insulin prom inh,Insulin prom inh cell count,RGS16-Gao,HSV replic up,HSV replic up primary fold,PKD1 inh
c1ccc(Oc2cc(-c3ccccc3)ncn2)cc1,-4.5,-57,70,99,i,0.85,-5
COCCNC(=O)/C(C#N)=C/C(C)=C/c1ccccc1,-2.3,-14,125,108,i,0.84,-10
N#CCSc1nnc(-c2ccccc2)c(-c2ccccc2)n1,-2.1,5,60,88,i,1,-4
Cn1c(=O)c(C(=O)CN2CCN(Cc3ccc4c(c3)OCO4)CC2)c(N)n(Cc2ccccc2)c1=O,/,/,/,102,i,0.94,/
OCCN1CCN(CC(O)COc2ccc3c(c2)OCO3)CC1 (stereo unspecified),-3.0,-10,121,96,i,1.1,5
COc1ccc(CCNc2ncnc3sccc23)cc1OC,/,7,182,93,i,0.79,-4
Cc1cccc(NC(=S)N(C)Cc2cn(C)c3ccccc23)c1,-1.6,26,118,102,i,0.66,3
Cc1cc(NC(=O)COC(=O)C(Nc2ccc(C(F)(F)F)cc2Cl)C(C)C)no1 (stereo unspecified),-0.7,/,/,103,i,0.88,2
CCCCc1c(C)c2ccc(OCC(C)=O)cc2oc1=O,-1.6,/,/,96,i,0.95,-11
CCSc1ncc(Cl)c(C(=O)Nc2ccccc2)n1,-1.1,/,/,108,i,1.1,2
COC(=O)c1cncc(O)c1,-0.8,6,44,99,i,1,-5
Nc1c(Nc2ccccc2)c2ccccc2oc1=O,-1.9,50,176,72,i,1,-4
Cc1ccc(C(=O)N2CCCC2)c(F)c1F,-1.3,-21,136,107,i,0.82,-7
Cc1cc(Cl)c(S(=O)(=O)Nc2cc(S(=O)(=O)N3CCOCC3)ccc2F)cc1OCC(N)=O,/,/,/,95,i,0.98,5
O=C(Nc1ccc(N2CCOCC2)nc1)c1c(F)cccc1F,/,/,/,105,i,1.2,/

# Single records, as listed above. Values in the order: GALR2 ag	Insulin prom inh	Insulin prom inh cell count	RGS16-Gao	HSV replic up	HSV replic up primary fold	PKD1 inh
# Listed for COCCNC(=O)/C(C#N)=C/C(C)=C/c1ccccc1 = -2.3	-14	125	108	i	0.84	-10
# Listed for Nc1c(Nc2ccccc2)c2ccccc2oc1=O = -1.9	50	176	72	i	1	-4
# Listed for O=C(Nc1ccc(N2CCOCC2)nc1)c1c(F)cccc1F = /	/	/	105	i	1.2	/
# Listed for Cc1ccc(C(=O)N2CCCC2)c(F)c1F = -1.3	-21	136	107	i	0.82	-7

# (cont.)
SMILES,GALR2 ag,Insulin prom inh,Insulin prom inh cell count,RGS16-Gao,HSV replic up,HSV replic up primary fold,PKD1 inh
O=C1NC(Cc2c[nH]c3ccccc23)C(=O)N1c1ccc(F)cc1 (stereo unspecified),0.3,-13,50,95,i,1,-4
O=c1c2sccc2nc(SCc2cc(=O)n3cc(Br)ccc3n2)n1Cc1ccccn1,/,36,62,107,i,0.96,-5
O=C(NNC(=S)NC(=O)c1ccco1)c1ccc(F)cc1,/,/,/,101,i,0.94,/
COc1nc(C)nc2c1sc(=S)n2C,-0.8,7,74,108,i,1,-12
O=C(NCCCn1ccnc1)c1cc2c(s1)CCCCC2,-2.2,31,146,99,i,0.86,-5
COc1cccc(Nc2ncnc3nc[nH]c23)c1,-0.9,/,/,103,i,0.88,-5
CSc1ccccc1NC(=O)Cn1nc([N+](=O)[O-])cc1C,/,/,/,95,i,0.92,0
CCN1CC2([N+](=O)[O-])CC=C(OC)C([N+](=O)[O-])(C1)C2 (stereo unspecified),-1.7,/,/,96,i,1.1,6
Cc1cc2c3c(c1)C(C)(c1ccccc1)CC(C)(C)N3C(=O)C21C(C#N)=C(N)OC2=C1C(=O)CC(C)(C)C2 (stereo unspecified),18*,-38,130,100,i,0.83,-3
COc1cccc(-c2nc(CCl)cs2)c1,/,/,/,103,i,1.1,-7
COC(=O)C1=C(C)NC(=O)/C1=C/c1ccc(CNS(=O)(=O)c2ccc(C)cc2)o1,/,/,/,89,i,1,1
O=C(NCc1ccccc1)c1ccc(-c2ccccc2F)o1,-3.0,15,167,100,i,0.77,-5
CN(C)c1ccc(NC(=O)c2cnsn2)cc1,/,/,/,95,i,1.1,3
COc1cccc(C(=O)OCC(=O)Nc2ccccc2N2CCOCC2)c1,0.0,/,/,104,i,1.1,4
COC(=O)c1ccc(NC(=O)C(=O)N2CCN(C(=S)Nc3ccccc3OC)CC2)cc1,-1.1,11,73,106,i,0.97,-3
CN(C)S(=O)(=O)c1ccc(Nc2nc(C3CC3)nc3c2nnn3Cc2ccccc2Cl)cc1,-1.0,61,171,128,i,0.89,0
CC1CCN(c2c(NCC3CCC(C(=O)NCCc4ccccc4)CC3)c(=O)c2=O)CC1 (stereo unspecified),-0.6,-25,94,95,i,1.1,-11
